Vaccinia pol inh = vaccinia E9 polymerase processive synthesis inhibitors, primary screen, biochemical, absorbance. normalized absorbance, % (test concentration not listed). 46,000 tested, 0.94% active. in vitro processive DNA synthesis, absorbance read-out; stronger effect = lower value; some inactives read as strong as hits. Vaccinia virus DNA polymerase (E9) processive complex;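 active means replicate mean up to 90% and picked by the depositor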;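 further: 100% = median of the test wells of a plate; 100 nL library stock went into each well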
Numbers without * were called inactive; & = joins results of further samples.

compound,Vaccinia pol inh
CN1C(=O)CC(c2ccsc2)Sc2ccccc21 (stereo unspecified),105
Nc1c(C(=O)Nc2ccc(Cl)cc2)oc2ccccc12,100
Cc1ccc(S(=O)(=O)c2c(O)c3ccc(C(=O)N4CCOCC4)cc3[nH]c2=O)cc1,107
CCN1c2ccccc2-c2nc3ccccc3n2C1c1ccccc1 (stereo unspecified),105
COc1ccc(Cc2nnc(SCC3CC3)n2-c2ccc(F)cc2)cc1OC,102
CC(=O)Nc1sc2c(c1C(c1cccs1)N1CCOCC1)CCCC2 (stereo unspecified),114
CC(C)(C)c1cc(C=C(C#N)C#N)cc(C(C)(C)C)c1O,99
CC(C)c1ccc(NC(=O)C(NC(=O)Cc2cccs2)c2ccccc2)cc1 (stereo unspecified),100
Cc1ccc(NC(=O)CSc2nnc3n2CCCCC3)cc1,101
CC(C)c1cccc(C(C)C)c1NC(=O)CSc1ncccn1,97
CC(=C1C(=O)NC(=O)NC1=O)c1ccc(N)cc1,101
O=C1CCC(=O)N1c1c(F)c(F)nc(N2CCCCC2)c1F,100
CCC(=O)Nc1nc(-c2ccc3c(c2)OCO3)cs1,97
COc1ccc(CCNC(=O)c2ccc(/C=C3\Oc4ccccc4NC3=O)cc2)cc1OC,110
CC1=C(C)CS(=O)N(C(=O)c2ccccc2)C1 (stereo unspecified),101

Four of these compounds in another layout.
Cc1ccc(NC(=O)CSc2nnc3n2CCCCC3)cc1
  Vaccinia pol inh = 101

CC(C)c1cccc(C(C)C)c1NC(=O)CSc1ncccn1
  Vaccinia pol inh = 97

CC(=C1C(=O)NC(=O)NC1=O)c1ccc(N)cc1
  Vaccinia pol inh = 101

O=C1CCC(=O)N1c1c(F)c(F)nc(N2CCCCC2)c1F
  Vaccinia pol inh = 100

(next part)
compound,Vaccinia pol inh
CC1=C(c2ccccc2)[N+](=O)C2(CCCC2)N1[O-],100
Cc1ccc(S(=O)(=O)NC(=O)SC#N)cc1,100
CC1(C)C=C(C(=O)N2CCOCC2)C(C)(C)N1,100
O=C(NC1CCCCC1)c1cccc(-n2c(=S)[nH]c3cc(Cl)ccc3c2=O)c1,100
CCOc1ccc(N=C2C(=O)N(c3ccccc3)c3ccccc32)cc1,88
CC[n+]1c(C)cc(C)n1-c1ccccc1,100
Cc1nn(CCc2nc(C(C)(C)C)cs2)c2[nH]c(=O)cc(C(F)(F)F)c12,100
CN(C)c1ccc(NC(=O)COc2ccc(C#N)cc2)cc1,104
CCC1=Nc2cc(C(=O)N3CCc4ccccc4C3)ccc2Sc2ccccc21,106
O=C(Cc1ccccc1)Oc1ccc(C2SCCS2)cc1,101
O=C(Nc1ccc(Cl)cc1)Nc1cccc(-c2cn3cccnc3n2)c1,105
CCc1ccc(NC(=O)c2sc3[nH]c(=O)c(C(=O)O)cc3c2N)cc1,96
O=c1c2ccccc2[nH]c(=S)n1Cc1cccnc1,98
CN(C)S(=O)(=O)c1ccc(C#N)cc1,100
Cc1ccc(Sc2c(C)[nH]n(C(C)(C)C)c2=O)cc1,100
Nc1cccc(NC(=O)c2cccc(S(=O)(=O)Nc3cccc(N)c3)c2)c1,100
CCOc1ccc2c(c1)[N+](C)(C)C(C)(C)C=C2C,100
O=c1[nH]c(=O)n(-c2ccccc2F)c(O)c1C=NCCC1=CCCCC1,101
COc1ccc(N=Cc2ccc(SC)cc2)cc1N,83
O=c1c(=Nc2ccccc2O)c(=O)c2ccccc12,101
COC(=O)c1ccsc1NC(=O)CCOc1ccccc1,95
Cc1cc2c(N3CCC(C(=O)O)CC3)ncnc2s1,104
NC[C@H]1O[C@H](O[C@H]2[C@H](O)[C@@H](O[C@H]3O[C@H](CO)[C@@H](O)[C@H](N)[C@H]3O)[C@H](N)C[C@@H]2N)[C@H](O)[C@@H](O)[C@@H]1O,99
C=CCc1cccc(C=Nc2cccn3cc(-c4ccccc4)nc23)c1O,101
Clc1ccccc1CNCc1ccccc1,100
CN=C(c1ccc(C)cc1)n1c(=S)nc(-c2ccc(C)cc2)n(C)c1=S,100
O=C1CC(c2ccccc2F)c2cc3c(cc2N1)CCC3 (stereo unspecified),100
NNC(=O)c1ccc(CSc2ccc(C(F)(F)F)cn2)o1,106
CCOC(=O)c1ccc2nc(C(F)(F)F)nc(Cl)c2c1,127
O=C1C(=Cc2cccn2-c2ccc(O)cc2)C(=O)c2ccccc21,100
CCN(CC)C(=O)Cn1cc(SCC(N)=O)c2ccccc21,102
O=C(Cn1cnc2c(oc3ccccc32)c1=O)N1CCCc2ccccc21,97
CN(C)c1ccc(C(Nc2nccs2)c2ccc3cccnc3c2O)cc1 (stereo unspecified),101
CCOC(=O)CSc1nc(NC#N)nc(N(CC)CC)n1,100
O=C(O)CCN1C(=O)c2cc(Cl)c(Cl)cc2C1=O,100
COc1ccc(CNC(=O)c2cn(C)c(=O)c3ccccc23)cc1,110
COC(=O)CNc1cc(C)c(C(O)(C(F)(F)F)C(F)(F)F)cc1OC,96
Cc1cc(=O)[nH]c(SC(C(=O)O)c2ccccc2)n1 (stereo unspecified),101&100
Cc1cccc(-c2nnc(C3CCN(S(=O)(=O)Cc4ccccc4)CC3)o2)c1,101
Cc1[nH]n(-c2ccccc2)c(=S)c1C=NC(C)Cc1ccccc1 (stereo unspecified),100
CC(C)(C)c1ccc(C(=O)N2CCC(c3nc(-c4ccc(Cl)cc4)no3)CC2)cc1,100
Cc1cc(=O)cc(C)n1-c1ccc(Cl)cc1Cl,98
Nc1c(Br)cc(Br)cc1CNC1CCC(O)CC1 (stereo unspecified),96
O=S(=O)(NC1CCN(Cc2ccccc2)CC1)c1ccc(I)cc1,108
Oc1ccc2ccccc2c1C=Nc1c(F)c(F)c(F)c(F)c1F,103
N#CC(c1ccccn1)c1nc(=O)c2ccccc2s1 (stereo unspecified),106
CCOC(=O)c1ccc(N=Cc2ccc(OC(=O)c3ccco3)cc2)cc1,99
CCN1c2ccccc2NC2N=C(OC)C(c3ccccc3)C21 (stereo unspecified),100
CCCCCCCCCCCCCCCCOC[C@H](COP(=O)([O-])OCC[N+](C)(C)C)OC(=O)NC,100
O=C(C1CCCCN1S(=O)(=O)c1ccc(F)cc1)N1CCN(c2ccccc2F)CC1 (stereo unspecified),97
Cn1cc(C(=O)Cc2ccccc2)c2ccccc21,96
c1cn2cc(CSC3CCCC3)nc2s1,99
Cc1ccc(N(C(=O)COc2c(C)cccc2C)S(=O)(=O)c2ccc(Cl)cc2)cc1,100
CCOc1ccc2nc(SCC(=O)N3CCN(C(=O)c4ccc(C)cc4)C3)sc2c1,100
CC(=O)Nc1ccc(-n2cc(-c3ccccc3)nc2SCC(N)=O)cc1,102
Cc1ccc2[nH]cc(CC(C)N)c2c1 (stereo unspecified),100
COc1ccc(-c2cc(=O)c3cccc(C)c3o2)cc1,104
Cc1ccc(C(=O)COC(=O)c2nc(Cl)ccc2Cl)cc1,83
O=C(NCc1ccccc1Cl)c1ccc[nH]1,120
CC1(C)Cc2c(sc(NC(=O)c3ccccc3)c2C#N)C(C)(C)N1,106

Later entries
compound,Vaccinia pol inh
CCCCC[C@H](O)/C=C/[C@@H]1[C@@H](C/C=C\CCCC(=O)O)[C@@H](O)C[C@@H]1O,101
O=C(Cc1nn[nH]n1)Nc1ccc(F)c(Cl)c1,104
Cc1c2cnn(-c3ccccc3)c(=O)c2c(C)n1CCCC(=O)N(C)Cc1ccccc1,104
O=C1C2=C/C(=C\N3CCCCC3)C(=O)N2c2ccccc21,100
Cc1cc(/C=C2\C(=O)NC(=S)N(c3ccccc3F)C2=O)c(C)n1-c1ccc(Cl)c(C(=O)O)c1,100
CC(C)[N+](C)(CCOC(=O)C1c2ccccc2Oc2ccccc21)C(C)C,96
CCc1ccc(NC(=O)CCc2nc3cccnc3n2Cc2cccs2)cc1,102
O=C(COC(=O)C1CC1)Nc1ccccc1Cl,97
COc1ccc2cc3cc(C(=O)NCCN4CCN(c5ccccc5F)CC4)oc3nc2c1,96
CCc1ccc(-c2nn(-c3ccccc3)cc2/C=C2\SC(=S)NC2=O)cc1,104
Cc1ccc2c(c1)sc(=NC(=O)c1ccccc1)n2C,103
COc1nc(NC(=O)NS(=O)(=O)Nc2cccc3cccnc23)nc(OC)n1,90
CCOc1ccc(S(=O)(=O)n2cnc3ccccc32)cc1,100
CC(C(=O)N1CCCCCC1)n1sc2ccccc2c1=O (stereo unspecified),103
O=C(Cc1ccccc1)n1cnc2ccccc21,95
CC(=O)NS(=O)(=O)c1ccc(NC(=O)COc2ccc(Cl)cc2C)cc1,100
COc1cc(OC)nc(NC(=O)CS(=O)(=O)c2ccccc2)n1,100
CCOC(=O)Cn1cnc2sc(-c3ccccc3)cc2c1=O,101
CCC(C)NS(=O)(=O)c1cccc2nsnc12 (stereo unspecified),94
CN1N=C(c2coc3ccccc23)CC1(O)C(F)(F)F (stereo unspecified),101
COc1ccc(CNC(=O)c2ccc3c(c2)C(=O)N(Cc2ccco2)C3=O)cc1,103
COc1cc(/C=C2\SC(N(C)c3ccc(O)cc3)=NC2=O)ccc1OCC(=O)O,101
N#CC(C(=O)NCc1cccs1)c1ccccc1 (stereo unspecified),102
CCC(=O)NCCCc1nc2ccccc2n1CC,85
CSc1nc2cccc(F)c2c(=O)n1-c1ccc(C)c(C)c1,101
COc1ccc(C=Nc2ccccc2C(=O)O)cc1,100
O=C(O)C1CC=CCC1C(=O)Nc1ccccc1S (stereo unspecified),100
Cc1ccc(S(=O)(=O)c2ccc(-c3ccccc3)cc2)cc1,100
CCCC(=O)n1nc(CCC)c2c1CC(C)(C)CC2=O,104
Nc1ccc2nn(-c3ccccc3)nc2c1,100

Random excerpt: 12 records from the list.
compound,Vaccinia pol inh
O=C(O)C1CC=CCC1C(=O)Nc1ccccc1S (stereo unspecified),100
CCCCC[C@H](O)/C=C/[C@@H]1[C@@H](C/C=C\CCCC(=O)O)[C@@H](O)C[C@@H]1O,101
COc1ccc(Cc2nnc(SCC3CC3)n2-c2ccc(F)cc2)cc1OC,102
Nc1c(C(=O)Nc2ccc(Cl)cc2)oc2ccccc12,100
Oc1ccc2ccccc2c1C=Nc1c(F)c(F)c(F)c(F)c1F,103
CC(C)[N+](C)(CCOC(=O)C1c2ccccc2Oc2ccccc21)C(C)C,96
Cc1ccc(S(=O)(=O)NC(=O)SC#N)cc1,100
O=C1C2=C/C(=C\N3CCCCC3)C(=O)N2c2ccccc21,100
CC1=C(C)CS(=O)N(C(=O)c2ccccc2)C1 (stereo unspecified),101
CCOc1ccc(N=C2C(=O)N(c3ccccc3)c3ccccc32)cc1,88
CN1N=C(c2coc3ccccc23)CC1(O)C(F)(F)F (stereo unspecified),101
Cc1cc(=O)[nH]c(SC(C(=O)O)c2ccccc2)n1 (stereo unspecified),101&100

More entries.
Molecule | Vaccinia pol inh
Cc1cc(C)nc(SCc2cnc(C)nc2N)n1 | 97
CC(/C=C1\SC(=S)N(CCC(=O)Nc2ccccc2O)C1=O)=C\c1ccccc1 | 100
CC1(C)CC(=O)C(SC(F)(F)F)C(=O)C1 | 101
CSc1sc(C)cc1C(N)=O | 94
C=CCSc1nnc(-c2ccncc2)o1 | 99
CC1CCCC(NC(=O)COC(=O)COc2ccccc2)C1C (stereo unspecified) | 106
O=S(=O)(NCc1ccc2c(c1)CCO2)c1ccc(F)c(F)c1 | 100
COc1ccc(-c2nn(-c3ccccc3)cc2CC#N)cc1OC | 104
Cc1cc(-c2cc(C)[nH]n2)n[nH]1 | 100
CN1C=C/C(=C\c2cc[n+](C)c3ccccc23)c2ccccc21 | 84*
COc1ccc(-c2cc3nc(C)c(CCC(=O)NCc4ccc5c(c4)OCO5)c(C)n3n2)c(OC)c1 | 103
O=C(CSc1nc(-c2ccccc2)c(-c2ccccc2)o1)N1CCOCC1 | 96
Nc1nc(C23CC4CC(CC(C4)C2)C3)cs1 | 100
O=C(c1ccccc1)N1CCN(C2CCCC2)CC1 | 100
CNC(=O)CCCn1nc(C)c2sc3ccccc3c2c1=O | 97
O=c1c(C=NCc2cccnc2)c(C(F)(F)F)[nH]n1-c1nc2ccccc2s1 | 101
CCOc1ccccc1NC(=O)CSc1nccn1-c1ccccc1 | 101
CC(=O)N1c2ccccc2NC2=C(C(=O)CCC2)C1c1ccco1 (stereo unspecified) | 100
CC(=O)[C@H]1CCC2C3CC=C4C[C@@H](O)CC[C@]4(C)C3CC[C@@]21C (stereo partly specified) | 104
Cc1cccc(NC(=O)NC2CCCCC2)n1 | 96
O=C(Cn1nc(-c2ccccc2)ccc1=O)NCCc1ccccc1 | 94
Nc1ccc(S(N)(=O)=O)cc1 | 100
O=C(O)C1CSC(c2ccccc2Cl)N1C(=O)c1ccccc1F (stereo unspecified) | 100
O=C(Cn1c(=O)oc2cc(S(=O)(=O)N3CCCC3)ccc21)N1CCCC1 | 102
COc1cccc(C(=O)N=c2sc3cc(Cl)ccc3n2C)c1 | 95
CN(C)/C=C/c1cc(=S)c2ccccc2s1 | 100
S=c1nc(NCCc2ccccc2Cl)c2ccccc2[nH]1 | 99
N#Cc1c(OCC(F)(F)F)ccc(Sc2ncccn2)c1OCC(F)(F)F | 103
Cn1nnc2cc(C(=O)NC3CC3)ccc21 | 102
O=C(Cn1c2ccccc2n2ncnc12)c1ccc(-c2ccccc2)cc1 | 100
Cn1nnc(NCc2cc(Br)ccc2OCc2ccccc2F)n1 | 101
O=C(COC(=O)c1cnccn1)c1ccc(C2CCCCC2)cc1 | 111
COc1cc(C(F)(F)F)nc(-c2ccccn2)n1 | 110
O=C(Nc1ccccc1)C(=S)N1CCOCC1 | 95
O=C(COC(=O)C12CC3CC(CC(Cl)(C3)C1)C2)NCc1cccs1 | 98
COc1cccc(Nc2ncccc2C(=O)Nc2ccc(F)cc2)c1 | 98
CCOc1ccc(C(=O)SC2=NCCS2)cc1 | 100
CCN1C(=O)C2ON(c3ccc(Cl)cc3)C(c3ccc(N(C)C)cc3)C2C1=O (stereo unspecified) | 99
CCn1c(=O)cc(OCC(=O)N2CCCCC2C)c2ccccc21 (stereo unspecified) | 104
Cc1ccc2nc(NC(=O)c3ccc(Br)s3)sc2c1 | 88
Cc1cc(C)cc(N2CC(C)(C)C2=O)c1 | 85
CSc1sc(C(=O)NN)c2c1C1(CCC2)SCCS1 | 96
CC(C)NC(=O)Cn1cc(C(=O)C(C)(C)C)c2ccccc21 | 95
Nc1nc(-c2ccc3c(c2)CCCC3)cs1 | 101

The list is partial; rates above refer to the full screens.
